Screens (PubChem)
Methyltransferases – Primary Screen for Target Class Profiling of Small Molecule Inhibitors of Methyltransferases; 25,000 tested, 3.9% active; purified enzyme, MTase-Glo SAH luminescence; stronger effect = lower value; AID 1745853, 2022; calls only at 40 µM; active = -50% or lower on at least one of six enzymes; inconclusive = the cases between; inactive = as a rule above -30% on all six;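 also: enzymes were COMT GAMT GNMT HNMT NNMT and PNMT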
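Each enzyme was assayed with SAM and its substrate. SAH formation detected by MTase-Glo luminescence; single-point 40 uM screen[…].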
Calls only; i = inactive; u = inconclusive; + = active, no number. % is scaled to controls: 0 for no effect and ±100 for the full control effect. This is a subset; rates above refer to the full screens.

SMILES	Methyltransferases
CC1(C(=O)NCc2ccccc2)Cn2c(ccc2-c2ccco2)C(=O)N1c1ccc(Br)cc1 (configuration not stated)	i
Cc1ccc(-c2nnn3c2nc(NCCC(C)C)c2ccccc23)cc1	i
CC(C)=CCC/C(C)=C/CO[C@@H]1O[C@H](CO[C@@H]2O[C@@H](CO)[C@H](O)[C@H]2O)[C@@H](O)[C@H](O)[C@H]1O	i
COc1ccc(NC(=O)Cn2nc3n(CCc4ccccc4)c(=O)c4ccccc4n3c2=O)cc1OC	i
COc1ccccc1CNC(=O)C1(C)Cn2c(cc3ccccc32)C(=O)N1Cc1ccccn1 (configuration not stated)	i
COc1ccccc1CNC(=O)C1c2c(n(C)c3ccccc23)SCC(=O)N1c1cccc(SC)c1 (configuration not stated)	i
O=C(NCCc1ccccc1)c1ccc2c(=O)nc3c(-c4ccc(Cl)cc4)n[nH]n3c2c1	i
O=C(c1cccc([N+](=O)[O-])c1)N1CCc2c(c3ccccc3n2CC2CC2)C1	i
COC(=O)C(CC1(O)c2ccccc2N2C(=O)C(C)(C)N(O)C21)n1cnc2ccccc2c1=O (configuration not stated)	i
CN(CCc1ccccn1)C(=O)c1cn(Cc2cccc(C(F)(F)F)c2)nn1	i
CCCn1c(=O)c2ccccc2n2c(=O)n(Cc3ccc(Cl)cc3)nc12	i
COC(=O)c1cccc(CNCC2=CC(C)(C)COc3ccc(OC)cc32)c1	i

As a short view, four of the compounds above:
SMILES	Methyltransferases
COc1ccc(NC(=O)Cn2nc3n(CCc4ccccc4)c(=O)c4ccccc4n3c2=O)cc1OC	i
COc1ccccc1CNC(=O)C1(C)Cn2c(cc3ccccc32)C(=O)N1Cc1ccccn1 (configuration not stated)	i
COc1ccccc1CNC(=O)C1c2c(n(C)c3ccccc23)SCC(=O)N1c1cccc(SC)c1 (configuration not stated)	i
O=C(NCCc1ccccc1)c1ccc2c(=O)nc3c(-c4ccc(Cl)cc4)n[nH]n3c2c1	i

Going on with the list.
SMILES	Methyltransferases
CC(C)Cc1cnc(C2CCCN(C(=O)OC(C)(C)C)C2)[nH]1 (configuration not stated)	i
CCCCN1C(=O)CSc2c(c3ccccc3n2C)C1C(=O)NCc1ccccc1OC (configuration not stated)	i
COc1ccc(NC(=O)N2CCn3cccc3C2C(C)C)cc1OC (configuration not stated)	i
Clc1ccc2c(c1)C(N1CCNCC1)=Nc1ccccc1O2	i
CC(=O)Nc1c2n(c3ccccc13)CC(C)(C(=O)NCCC(C)C)N(Cc1cccc(Cl)c1)C2=O (configuration not stated)	i
NC1(C(=O)O)CCc2cc(C(=O)O)ccc21 (configuration not stated)	i
CCOc1ccc(N2C(=O)c3nc4ccccc4n3CC2(C)C(=O)NCc2ccccc2)cc1 (configuration not stated)	i
C[S+](=O)([O-])NCCNC(=O)c1cccc(-c2ccsc2)c1	i
CC(=O)Oc1ccc2c(=O)c(C3NC(C(=O)O)Cc4c3[nH]c3ccccc43)coc2c1 (configuration not stated)	i
COc1cc(CN2CCN(Cc3ccc(-n4cccn4)cc3C)CC2CCO)cc(OC)c1 (configuration not stated)	i
Cc1ccc(Cn2c(=O)c3ccc(C(=O)NC4CCCC4)cc3n3c(=O)n(CC(N)=O)nc23)cc1	i
O=C(O)CCC(=O)N1Cc2ccccc2CC2(CCCN(CC3CCOCC3)C2)C1 (configuration not stated)	i
Cc1ccc(Cn2c(=O)c3ccccc3n3c(=O)n(CC(=O)c4cccc(Cl)c4)nc23)cc1	i
O=C(CO)[C@@H](O)[C@H](O[C@@H]1O[C@H](CO)[C@H](O)[C@H](O)[C@H]1O)[C@H](O)CO	i
CC(=O)NC[C@H]1OC[C@@H](NCC(C)(C)C)[C@@H]1O	i
CN(C)c1ccc(CN2CCC(N3CCCCCC3=O)CC2)cc1	i
O=C(N[C@H]1CCOC[C@H]1C1CCOCC1)c1cc2ncccn2n1	i
CC(C)C(=O)N1CCc2[nH]nc(C(=O)NCCCc3ccccc3)c2C1	i
O=C(c1ccc(C2CCCNC2)cc1)N1CCCN(c2ccc(F)cc2)CC1 (configuration not stated)	i
COC(=O)[C@H](Cc1ccc(OC)cc1)NC(=O)[C@H]1CN(C(=O)c2ccc(N(C)C)cc2)CCN1C(=O)c1cccs1	i
O=C(N[C@H](c1ccccn1)C1CC(O)C1)c1cc(=O)n(-c2ccccc2)[nH]1 (some centres not stated)	i
CC(=O)N1CCC(N2CCOC[C@H]2c2ncc(C(C)(C)C)[nH]2)CC1	i
CCN1C(=O)c2cc(C(=O)Nc3cccc(Cl)c3C)nn2CC1(C)C(=O)NC1CCCC1 (configuration not stated)	i
CC(C)Oc1ccc(CNC(=O)c2cc3n(n2)CC(C)(C(=O)NCc2ccccc2)N(C)C3=O)cc1 (configuration not stated)	i
CCCCCCN(CCCCCC)C(=O)Cc1c(-c2ccc(F)cc2)[nH]c2ccccc12	i
CCCn1c(=O)c2ccc(C(=O)NC(C)CC)cc2n2c(=O)n(CC(=O)Nc3cccc(F)c3)nc12 (configuration not stated)	i
CC1(C(=O)NC2CCCCCCC2)Cc2ccccc2C(=O)N1CCN1CCCCCC1 (configuration not stated)	i
CC(C)(O)C1CCC2(C)C3C(O)C4C(C13)C42CO (configuration not stated)	i
CC1CCC(NC(=O)C2(C)Cn3c(nc4ccccc43)C(=O)N2Cc2ccc3c(c2)OCO3)CC1 (configuration not stated)	i
Cc1cc(C)c(S(=O)(=O)NCCc2nc(-c3ccc(Cl)cc3)n[nH]2)cc1C	i
CCN(CC)CCCNC(=O)c1cc2n(n1)CC(C)(C(=O)NCc1ccc(F)cc1)N(C)C2=O (configuration not stated)	i
COc1ccccc1-n1cc(C(=O)N2CCC3(CCNC(=O)CC3)CC2)cn1	i
CC1(C)C[C@H](NCC2CCCCC2)[C@@]2(CCC(=O)N3CCCC3)CC[C@](C)(O)C[C@@H]12	i
CN(C)c1nccnc1OC1CCN(S(=O)(=O)c2ccccc2)C1 (configuration not stated)	i
CCC1CN(S(=O)(=O)c2ccc3[nH]c4c(c3c2)CCCC4)c2cc(C)ccc2O1 (configuration not stated)	i
Cc1ccc2c(c1)c(-n1cccc1)c1n2CC(C)(C(=O)NC2CCCC2)N(Cc2cccs2)C1=O (configuration not stated)	i
O=C(CCC1CCN(S(=O)(=O)c2ccccc2)CC1)NCc1ccco1	i
COc1ccccc1CNC(=O)C1c2c(n(C)c3ccccc23)SCC(=O)N1c1cc(C)cc(C)c1 (configuration not stated)	i
COc1ccc(-c2nnc3c4ccccc4c(C)nn23)cc1S(=O)(=O)N1CCC(C)CC1	i
O=C(CCl)Nc1ccc(S(=O)(=O)c2ccc(NC(=O)CCl)cc2)cc1	u
C#CC(N)CCC(=O)O (configuration not stated)	i
Cc1ccc(C)c(N2C(=O)c3cc4sccc4n3CC2(C)C(=O)NC2CCCCCC2)c1 (configuration not stated)	i
Cc1noc2c(NCCN(C)C)cc(-c3ccccc3)nc12	i
CN(C)C(=O)NC1(c2ccccc2)CCN(CCC[C@]2(c3ccc(Cl)c(Cl)c3)CCCN(C(=O)c3ccccc3)C2)CC1	u
Cc1ccc(Cn2c(=O)c3ccc(C(=O)NC(C)C)cc3n3c(=O)n(Cc4cccc(F)c4)nc23)cc1	i
CCOc1ccc(CN2C(=O)c3cc4ccccc4n3CC2(C)C(=O)NCCC(C)C)cc1OC (configuration not stated)	i
CCOc1ccc(C(=O)Cn2nc3n(C)c(=O)c4ccc(C(=O)NC(C)CC)cc4n3c2=O)cc1 (configuration not stated)	i
O=C1Nc2ccccc2-c2nc3ccccc3c(=O)n2-c2c(O)cccc21	i
CC(C)CN1C2CCC1CN(C(=O)Nc1ccccc1F)C2	i
CC(=O)Nc1c2n(c3ccccc13)CC(C)(C(=O)NC1CCCCC1)N(C1CCC(C)CC1)C2=O (configuration not stated)	i
CCCn1c(=O)c2ccc(C(=O)NC(C)C)cc2n2c(SCc3cccc(C)c3)nnc12	i
O=C([C@@H]1C[C@H](F)CN1C(=O)Cc1ccccc1F)N1CCCCC1	i
Cc1ccc(Cn2c(=O)c3ccccc3n3c(CCC(=O)N4CCN(c5ccccc5)CC4)nnc23)cc1	i
CCOC(=O)CNC(=O)C1(C)Cn2c(ccc2-c2ccco2)C(=O)N1Cc1ccc2c(c1)OCO2 (configuration not stated)	i
CC1CCC2C(C(=O)O)=COC(O[C@@H]3O[C@H](CO)[C@@H](O)[C@H](O)[C@H]3O)C12 (some centres not stated)	i
CCc1ccc(N2CC(c3noc(C4(c5ccccc5)CC4)n3)CC2=O)cc1 (configuration not stated)	i
OC[C@H]1O[C@@H](OCCc2ccccc2)[C@H](O[C@@H]2OC[C@@H](O)[C@H](O)[C@H]2O)[C@@H](O)[C@@H]1O	+
O=C1CCN(C(=O)c2ccoc2)CCCC(c2nc(-c3cccnc3)no2)CCN1 (configuration not stated)	i
COC1CC(O[C@H]2CC[C@]3(C)C4CC[C@]5(C)C(C6=CC(=O)OC6)=CCC56OC46CC[C@@H]3C2)OC(C)C1O[C@@H]1O[C@H](CO[C@@H]2O[C@H](CO)[C@@H](O)[C@H](O)[C@H]2O)[C@@H](O)[C@H](O)[C@H]1O (some centres not stated)	i
CC(C)CCNC(=O)C1c2c(n(C)c3ccccc23)SCC(=O)N1C1CCCCCC1 (configuration not stated)	i

Grouped by structure: the entries above containing fluorine (eight)
SMILES	Methyltransferases
CN(CCc1ccccn1)C(=O)c1cn(Cc2cccc(C(F)(F)F)c2)nn1	i
O=C(c1ccc(C2CCCNC2)cc1)N1CCCN(c2ccc(F)cc2)CC1 (configuration not stated)	i
CCCCCCN(CCCCCC)C(=O)Cc1c(-c2ccc(F)cc2)[nH]c2ccccc12	i
CCCn1c(=O)c2ccc(C(=O)NC(C)CC)cc2n2c(=O)n(CC(=O)Nc3cccc(F)c3)nc12 (configuration not stated)	i
CCN(CC)CCCNC(=O)c1cc2n(n1)CC(C)(C(=O)NCc1ccc(F)cc1)N(C)C2=O (configuration not stated)	i
Cc1ccc(Cn2c(=O)c3ccc(C(=O)NC(C)C)cc3n3c(=O)n(Cc4cccc(F)c4)nc23)cc1	i
CC(C)CN1C2CCC1CN(C(=O)Nc1ccccc1F)C2	i
O=C([C@@H]1C[C@H](F)CN1C(=O)Cc1ccccc1F)N1CCCCC1	i

Carrying on.
SMILES	Methyltransferases
CNC(=O)c1ccc2cc(C3(O)CCn4cncc43)ccc2c1 (configuration not stated)	i
CCCC1c2cccn2CCN1C(=O)NC1(CC(=O)OCC)CCCCC1 (configuration not stated)	i
CCCN1C(=O)c2cc(C(=O)NCCN3CCN(CC)CC3)nn2CC1(C)C(=O)NC1CCCC1 (configuration not stated)	i
COc1cccc(C(=O)Nc2ccc(-c3ccc(OC)nn3)cc2)c1	i
CS(=O)(=O)N1CCC(Oc2ccc(C(=O)NCCc3ccccn3)cc2Cl)CC1	i
CCOC(=O)C1CCCN(c2nc3c(S(=O)(=O)c4ccc(C)cc4)nnn3c3ccccc23)C1 (configuration not stated)	i
C=C(C)Cn1c(=O)[nH]c2ccccc21	i
COC(=O)c1cc2n(n1)CC(C)(C(=O)NC1CCC(C)CC1)N(c1cc(C)cc(C)c1)C2=O (configuration not stated)	i
Cn1c(=O)c2ccc(C(=O)NC3CCCC3)cc2n2c(=O)n(CC(=O)Nc3ccc(F)cc3)nc12	i
COC(=O)c1cc2n(n1)CC(C)(C(=O)NC1CCCC1)N(Cc1ccccc1OC)C2=O (configuration not stated)	i
CC1(C)CC2C(O)c3cocc3CC(C)(O)C2C1 (configuration not stated)	i
CCCn1c(=O)c2ccc(C(=O)NC(C)C)cc2n2c(SCC(=O)Nc3cc(C)cc(C)c3)nnc12	i
CC(=O)/C=C/C1C(C)CC(O[C@@H]2O[C@H](CO)[C@@H](O)[C@H](O)[C@H]2O)CC1(C)C (some centres not stated)	i
CC1(C(=O)NC2CCCC2)Cn2c(nc3ccccc32)C(=O)N1CCc1ccc(Cl)cc1 (configuration not stated)	i
COCC1(CNCc2c(C)noc2C)C[C@@H](O)[C@@H](O)C1 (some centres not stated)	i
CN(C)c1cc(N2CCCC(NC(=O)C3CCC3)C2)ncn1 (configuration not stated)	i
CC(C)CC(=O)NC[C@@H]1C[C@H](F)CN1C(=O)CCCc1cccs1	i
O=C(COc1ccc(Cl)cc1)N1CCc2nn(CC3CC3)c(=O)n2CC1	i
CCc1cccc(NC(=O)N2CC(c3nnc(C(C)C)o3)C3(CCOCC3)C2)c1 (configuration not stated)	i
O=C(Nc1ccccc1F)N1CC2CCC(C1)N2Cc1ccc(-c2cc(F)cc(F)c2)cc1	i
CC1(C(=O)NC2CCCCCCC2)Cn2c(cc3sccc32)C(=O)N1CCCN1CCCCC1 (configuration not stated)	i
CC(C)c1nccn1CCCNc1nc(-c2ccncc2)nc2c1cnn2C	+
CCOC(=O)c1cc2n(n1)CC(C)(C(=O)NC1CCCCCC1)N(c1ccc(C)cc1)C2=O (configuration not stated)	i
CC(=O)O[C@H]1CC2(C)[C@@H](C[C@@H](O)[C@H]3[C@@]4(C)CC[C@@H](O)[C@@H](C)[C@@H]4CC[C@@]32C)C1=C(CCC=C(C)C)C(=O)O (some centres not stated)	i
O=C(Nc1ccc(N2CCC(NC3Cc4ccccc4C3)CC2)cc1)C1CCCC1	i
COc1ccc(C(=O)N2CCC3(C2)C(=O)Nc2ccccc23)cc1 (configuration not stated)	i
C[S+](=O)([O-])N1Cc2ccccc2CC2(CCCN(Cc3ccccn3)C2)C1 (configuration not stated)	i
CC(=C/C(=O)O)/C=C/[C@]1(O)[C@@]2(C)CO[C@]1(C)C[C@H](O[C@@H]1O[C@H](CO)[C@@H](O)[C@H](O)[C@H]1O)C2	i
NC(=O)[C@@H](Cc1ccccc1)NC(=O)C1=C[C@@H](NC(=O)CS(=O)(=O)c2ccccc2)[C@@H](O)[C@H](O)C1	i
CCCC1c2cccn2CCN1C(=O)Nc1ccc(Br)c(C)c1 (configuration not stated)	u
